Sa growth 42C = inhibitors of Staphylococcus aureus growth at 42 °C; S. aureus RN4220 growth, OD600, 20 h; active compounds read low; hit rate 0.53% among 170,000; relative growth, % (concentration not given with the values);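 active = growth at 42 °C up to 50% and 20 or more points under that at 30 °C, or under 10% at both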;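 also: 300 nL library stock went into each well; scaled to the means of positive and negative controls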
HCMV UL50-53 inh = disrupts HCMV UL50-UL53 complex binding; inhibition, % (concentration not given with the values); HTRF UL50-UL53 interaction, normalized percent inhibition; hit rate 0.15% among 190,000;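 active = both replicates at 50% or more, plus weaker picks with an unusually low signal ratio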;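 also: stock transfer was 100 nL into about 20 µL; 0% = negative control wells and 100% = wells with untagged competitor protein; inactives centre near -12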
GIV Gai3 FP = blocks GIV peptide binding to rat Galpha-i3; AID 1224905; Galpha-i3/FITC-GIV peptide fluorescence polarization, 90 min; active compounds read low; scaled: aluminum fluoride 0%, vehicle 100%; hit rate 0.42% among 210,000; percent of control (FP), % (concentration not given with the values);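 active = replicate mean at 85% of control or lower, very high polarization wells dropped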;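 also: wells of about 15 µL received 100 nL stock; the first replicate is given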
Target sequence (P08753 whole entry, looked up): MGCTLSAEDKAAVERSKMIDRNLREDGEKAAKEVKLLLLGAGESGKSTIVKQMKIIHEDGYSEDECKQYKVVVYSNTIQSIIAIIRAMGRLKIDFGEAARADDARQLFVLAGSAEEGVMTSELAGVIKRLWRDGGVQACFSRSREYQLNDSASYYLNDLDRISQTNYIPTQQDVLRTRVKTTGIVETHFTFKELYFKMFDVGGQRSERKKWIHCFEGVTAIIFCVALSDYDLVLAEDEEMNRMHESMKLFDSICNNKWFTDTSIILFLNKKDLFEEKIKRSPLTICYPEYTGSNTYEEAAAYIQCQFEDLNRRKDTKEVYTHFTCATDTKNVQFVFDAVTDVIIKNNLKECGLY
Sa growth 42C second temp = second read-out of Sa growth 42C, no call of its own (marks repeat the call); relative growth, %; measured here: growth at 30 °C;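 optical density after 20 h as mean of two plates; 100% = untreated growth and lower means inhibition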
Starred values were filed as active, the others as inactive; / = no result given.

Compound,Sa growth 42C,Sa growth 42C second temp,HCMV UL50-53 inh,GIV Gai3 FP
CCc1c(C)c2cc3c(-c4cccc(OC)c4)coc3cc2oc1=O,90,80,-13,105
Cc1nc(SCc2nc(-c3ccccc3)oc2C)[nH]c(=O)c1C,/,/,-3,104
C/C(N)=C(/C#N)C(NC(=O)C1CCCCC1)(C(F)(F)F)C(F)(F)F,91,91,4,104
CC(=O)Nc1ccc(C(=O)NCCn2c(C)nc3ccccc32)cc1,/,/,-14,103
Cc1ccc(NC(=O)CSc2nc(C)c(Cc3ccccc3)c(=O)[nH]2)cc1,124,78,-37,102
COc1ccccc1C(=O)N1CCN(Cc2c[nH]c3ccccc23)CC1,96,82,-2,106
COc1cc(C=C2C(=O)N(C)C(=O)N(C)C2=O)ccc1Oc1ccc([N+](=O)[O-])cn1,/,/,-76,97
O=C(OCc1ccccc1)C(O)c1ccccc1 (stereo unspecified),115,90,-24,107
Cn1c(=O)c2c(-c3ccccc3Cl)n(Cc3ccc(Cl)cc3)cc2n(C)c1=O,108,90,-4,98
COCCn1c(C)c(C(=O)O)sc1=S,99,90,-8,100

3 entries from above, arranged by their value in Sa growth 42C, lowest first.
Structure,Sa growth 42C
CCc1c(C)c2cc3c(-c4cccc(OC)c4)coc3cc2oc1=O,90
C/C(N)=C(/C#N)C(NC(=O)C1CCCCC1)(C(F)(F)F)C(F)(F)F,91
Cc1ccc(NC(=O)CSc2nc(C)c(Cc3ccccc3)c(=O)[nH]2)cc1,124

Next structures.
Compound,Sa growth 42C,Sa growth 42C second temp,HCMV UL50-53 inh,GIV Gai3 FP
CNS(=O)(=O)c1ccc(OC)c(-c2noc(C)n2)c1,/,/,-32,106
O=C(CSC1=Nc2ccccc2N=C(c2ccccc2)C1)Nc1ccc2c(c1)OCO2,/,/,-17,104
COc1cccc(-c2nc3c(c(SCC(=O)Nc4cccc(C)c4C)n2)Cc2c(CO)cnc(C)c2O3)c1,93,92,/,109
Cn1cnc(S(=O)(=O)Nc2cccc(Cl)c2)c1,100,90,/,101
CN(C)c1ccc(C2Nc3sc4c(c3C(=O)N2C)CCCC4)cc1 (stereo unspecified),99,66,/,134
O=C(O)c1cccc(NC(=O)c2ccccc2C(=O)O)c1,89,76,-13,100
CCOc1ccc(-c2csc3ncn(CC(N)=O)c(=O)c23)cc1,106,77,-2,103
Cc1cn2c(=O)cc(COc3ccccc3)nc2s1,/,/,-8,97
O=C(Nc1cccnc1Sc1nc2cccnc2s1)c1ccc(F)cc1,105,85,3,103
O=C(NCC1CCCO1)c1cc(=O)[nH]c2ccc(Br)cc12 (stereo unspecified),107,89,/,97
CC(C(=O)Nc1ccc(F)cc1)n1nnc2sc3c(c2c1=O)CCCC3 (stereo unspecified),/,/,-27,106
O=C(O)CSc1ncn(-c2ccccc2)n1,/,/,-10,101
CCN(CC)C/C=C/c1c(F)c(F)c(OC)c(F)c1F,96,81,-22,98
CCOC(=O)c1ccc2c(c1)N(CC(=O)Nc1ccccc1OC)C(=O)c1ccccc1S2(=O)=O,/,/,8,104
COC(C(=O)NCc1cccnc1)c1ccccc1 (stereo unspecified),115,91,-10,/
Cn1c(CSc2nc(N)cc(N)n2)n[nH]c1=S,84,84,-38,97
COc1ccc(OCC2CN=C(Nc3ccc(C)cc3)S2)cc1 (stereo unspecified),76,86,-41,105
CCC(=O)NC1CC(=O)N(c2cccc(OC)c2)C1 (stereo unspecified),108,92,-20,102
CC1CCCC(N2CC(C(=O)O)CC2=O)C1C (stereo unspecified),104,97,-2,/
COc1ccc2cc(CNc3ccc(C)cc3)c(=O)n(CC(=O)Nc3cccc(C(F)(F)F)c3)c2c1,80,90,/,98
CS(=O)(=O)c1ncc2c(n1)c(=O)c(C#N)c1[nH]c3ccccc3c(=O)n12,92,92,-28,/
O=C(Nc1scc(-c2cccs2)c1C(=O)O)c1ccc(F)cc1,41,14,-13,/
Cc1noc(C)c1C(=O)OCC(=O)Nc1cc(C(F)(F)F)ccc1N1CCOCC1,102,98,-2,/
O=C(O)C1CCCN1C(=O)OCc1ccccc1 (stereo unspecified),85,86,-12,/
COCCc1nn2c(=O)cc(COC(=O)c3ccc4c(c3)OCO4)nc2s1,89,96,/,98
CC(C(=O)Nc1ccc(F)cc1)C1SC(=O)NC1=O (stereo unspecified),72,59,-37,100
Cc1ccc(CNc2ccc(-c3nc(-c4ccco4)no3)cc2[N+](=O)[O-])cc1,98,85,-17,100
Cc1nn(CC(=O)NC(C)(C)C)c(=O)c2ccccc12,87,84,-16,102
O=C(Nc1ccccc1)N1CC=C(c2ccc(F)cc2)CC1,93,78,-34,106
COc1ccccc1N1CCN(C(=O)Cn2cnc3c2c(=O)n(C)c(=O)n3C)CC1,/,/,-16,96
CCCc1cc(C(=O)NC2CCCC2)no1,107,87,-5,97
Cc1ccc2c(CC(=O)Nc3ccc(S(=O)(=O)N4CCCCC4)cc3)coc2c1,105,90,-7,105
CCn1cnc2sc3c(c2c1=O)CCCC3,94,79,2,102
CC1CCN(c2nc3c(c(=O)[nH]2)CCN(Cc2ccccc2)C3)CC1,92,84,-13,100
O=C(OCn1nnc2ccccc2c1=O)c1cccnc1,103,85,/,103
Cc1ccc2nc(NC(=O)C(NS(=O)(=O)c3cccc4nsnc34)C(C)C)sc2c1 (stereo unspecified),90,81,-58,101
O=C(Cc1cccs1)N1c2ccccc2Sc2ccccc21,106,89,/,101
O=C(O)C1OCOc2ccccc21 (stereo unspecified),107,97,-9,106
CCOC(=O)CCc1c(C)nc2c(c(C)nn2C(C)(C)C)c1C,84,99,/,109
CC(C)(C)OC(=O)N1CCC(c2c(C(=O)NCCc3ccsc3)cnn2-c2ccc(F)cc2F)CC1,85,87,/,105
COC(=O)c1cc(C)cc(=O)o1,100,85,-94,106
CC(=O)Oc1ccccc1C(=O)NCCC(C)C,81,93,-8,101
COC(=O)c1cc2oc3ccccc3c2n1Cc1ccc(C)cc1,111,92,-27,100
CCCN(Cc1cc2cc(C)ccc2[nH]c1=O)C(=O)c1cccc(Cl)c1,128,91,15,108
CSc1cccc(NC(=S)N(CCN2CCCCC2)Cc2ccco2)c1,106,80,/,98
S=C(CC(=S)N1CCOCC1)N1CCOCC1,82,90,-7,/
Cc1cc(NC(=O)CCOc2ccc(F)cc2)no1,93,87,-26,103
O=C(CSc1nc(-c2cccs2)cc(C(F)(F)F)n1)N1CCSCC1,106,89,/,98
COC(=O)C1=C(C)OC(N)=C(C#N)C1c1cc(OC)ccc1OC (stereo unspecified),/,/,-8,107
Cc1ccc(-n2ncc3c(N4CCC(Cc5ccccc5)CC4)ncnc32)cc1C,126,88,/,111

(listing goes on)
Compound,Sa growth 42C,Sa growth 42C second temp,HCMV UL50-53 inh,GIV Gai3 FP
O=C(Nc1ccc(F)c(F)c1)c1ccc(F)c(S(=O)(=O)N2CCC3(CC2)OCCO3)c1,106,85,/,100
CCOC(=O)c1cc(C(=O)Nc2ccc(F)cc2)c(=O)[nH]c1C,/,/,-7,91
Cc1ccc(N2CC(=O)Nc3c(sc4nc(C)cc(C)c34)C2=O)cc1,103,88,28,102
CC(C)Oc1ccc(CNC(=O)CCCN2CCSc3ccccc32)cc1,/,/,-14,108
OCC1CCCN(c2ncc(C(F)(F)F)cc2Cl)C1 (stereo unspecified),75,97,-21,/
CCCCc1ccc(NC(=O)/C=N/O)cc1,77,69,-33,/
Cc1ccc(C(=O)Nc2ccc(-n3c(C)nc4ccccc4c3=O)cc2)cc1[N+](=O)[O-],102,95,/,96
CCNC(=O)C1CCN(S(=O)(=O)c2ccc(C)cc2)CC1,92,105,7,105
CCOc1ccccc1NC(=O)CSc1nccn1-c1cccc(C)c1,99,81,/,101
O=C(Cc1cn2ccsc2n1)OCc1ccccc1,112,90,-13,/
CC(C)C1Oc2ccccc2N(CC(=O)N(C)C2CCCCC2)C1=O (stereo unspecified),100,89,-2,100
Nc1c(C(=O)Nc2ccc(OC(F)(F)F)cc2)nnn1Cc1ccccc1,90,88,-24,106
CCOC(=O)C1CCC(CNC(=O)N2CC(CC)Oc3ccccc32)CC1 (stereo unspecified),99,93,0,103
CCc1nc(SCc2ccccc2)[nH]c(=O)c1C,82,96,-27,101
CC(=O)NCCn1c(SCc2ccccc2Cl)nc2ccccc2c1=O,99,84,6,102
Cc1nnc2c3ccccc3c(-c3cccs3)nn12,121,78,-29,/
COC(=O)COc1cccc(NC(=O)Cc2cccs2)c1,98,94,-7,105
COc1cc2c(=O)n(Cc3ccccc3)c(=O)n(CC(=O)Nc3cc(C(F)(F)F)ccc3Cl)c2cc1OC,94,97,9,105
CCCn1cnc2nc(CSc3ccccc3NC(=O)Nc3cccc(Cl)c3)cc(=O)n21,/,/,-10,101
Cn1cccc1CC(=O)N/N=C1/CCCc2ccccc21,105,94,-7,/
C[C@]12CCC(=O)C=C1C=C[C@@H]1[C@@H]2CC[C@@]2(C)[C@H]1CC[C@@]21CCC(=O)O1,94,86,-79,98
Cc1nn(C(=O)c2c[nH]c3ccccc23)c(N)c1-c1ccccc1,87,73,-9,/
Cc1cccnc1-n1c(C)c(C)c2c1ncn1nc(-c3ccc(C(C)(C)C)cc3)nc21,/,/,-1,101
CCOc1cc(/C=C2\SC(=S)N(CC)C2=O)cc(Cl)c1O,81,43,-19,-15*
N#Cc1nc(-c2ccccc2)oc1NCCN1CCCCC1,87,85,-22,/
CCSc1nc(NC(C)C)nc(N2CCOCC2)n1,95,106,-15,109
CCC(C)NC(=O)c1c(N)n(/N=C/c2ccc(OC)c(OC)c2)c2nc3ccccc3nc12 (stereo unspecified),90,77,-6,109
O=C(Nc1ccccc1Cl)c1cc2ccccn2n1,/,/,-27,104
NC(=O)CSc1ccc(-c2cccs2)nn1,114,90,/,111
Cc1cccc(CNC(=O)c2cnc3sc(N4CCOCC4)nn3c2=O)c1,102,98,/,103
O=C(Nc1cccc(-c2noc(C3CCCC3)n2)c1)C1CC(=O)N(c2cccc(Cl)c2)C1 (stereo unspecified),/,/,-21,99
COc1ccc(-c2c(C#N)c(N)nc(SCC(=O)OCc3ccccc3)c2C#N)cc1,/,/,4,104

Look-ups from above:
HCMV UL50-53 inh, Cc1cccnc1-n1c(C)c(C)c2c1ncn1nc(-c3ccc(C(C)(C)C)cc3)nc21 = -1
HCMV UL50-53 inh, C[C@]12CCC(=O)C=C1C=C[C@@H]1[C@@H]2CC[C@@]2(C)[C@H]1CC[C@@]21CCC(=O)O1 = -79

Among those listed so far, 11 have an NH in an aromatic ring:
Compound,Sa growth 42C,Sa growth 42C second temp,HCMV UL50-53 inh,GIV Gai3 FP
Cc1nc(SCc2nc(-c3ccccc3)oc2C)[nH]c(=O)c1C,/,/,-3,104
Cc1ccc(NC(=O)CSc2nc(C)c(Cc3ccccc3)c(=O)[nH]2)cc1,124,78,-37,102
COc1ccccc1C(=O)N1CCN(Cc2c[nH]c3ccccc23)CC1,96,82,-2,106
O=C(NCC1CCCO1)c1cc(=O)[nH]c2ccc(Br)cc12 (stereo unspecified),107,89,/,97
Cn1c(CSc2nc(N)cc(N)n2)n[nH]c1=S,84,84,-38,97
CS(=O)(=O)c1ncc2c(n1)c(=O)c(C#N)c1[nH]c3ccccc3c(=O)n12,92,92,-28,/
CC1CCN(c2nc3c(c(=O)[nH]2)CCN(Cc2ccccc2)C3)CC1,92,84,-13,100
CCCN(Cc1cc2cc(C)ccc2[nH]c1=O)C(=O)c1cccc(Cl)c1,128,91,15,108
CCOC(=O)c1cc(C(=O)Nc2ccc(F)cc2)c(=O)[nH]c1C,/,/,-7,91
CCc1nc(SCc2ccccc2)[nH]c(=O)c1C,82,96,-27,101
Cc1nn(C(=O)c2c[nH]c3ccccc23)c(N)c1-c1ccccc1,87,73,-9,/

Rows are unselected; overall some 0.83% were active at least once.
